# ClpP mod: qHTS Assay for Activators of ClpP | ATP-dependent Clp protease proteolytic subunit (Bacillus subtilis (strain 168)), P80244 | purified B. subtilis ClpP, FRET peptide cleavage, 20 min | Potency, µM (titrated, usually from 57.5 µM), inactives show at the top dose activity change, negative = active | hit rate 1.9% among 340,000; active = well fitted falling curve with a large enough effect; inconclusive = small, poorly fitted or top-dose-only effect; inactive = no such curve, though single readings can be large or run the other way; also: potency is read from the fitted curve at half-maximal effect; the source files actives as falling curves though it sought activators and does not explain the sign; nearly all actives have a fitted effect of over 65% in size; many hits overshoot -100%
# Target sequence (P80244 whole entry, looked up): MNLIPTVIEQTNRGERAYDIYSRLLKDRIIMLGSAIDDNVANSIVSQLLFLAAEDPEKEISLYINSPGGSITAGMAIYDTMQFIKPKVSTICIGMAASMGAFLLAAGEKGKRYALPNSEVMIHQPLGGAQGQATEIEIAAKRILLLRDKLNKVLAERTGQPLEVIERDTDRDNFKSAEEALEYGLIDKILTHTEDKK
#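 Buffer: 100 mM Tris/HCl pH8, 100 mM KCl, 0.05% low protease BSA, 2.5% glycerol, 0.01% Tween-20. ClpP 10 microg/mL final; 20 min RT; delta FRET normalized to ADEP and DMSO controls.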
# Menin MLL FP FL: inhibitors of human menin-MLL interaction, wild-type MLL peptide. Fluorescence polarization, fluorescein-MLL peptide displacement from menin. FP activity change, % at 61.4 µM. 290,000 tested, under 10 active. AID 1766; inconclusive = falling polarisation curve, or a change in total fluorescence; inactive = total fluorescence flat and polarisation flat or rising; no compound was filed as active; the % refers to the polarisation; negative = inhibition;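 also: % of control where 0% means no effect; inhibitors lower the polarisation; unlabelled MLL peptide was the positive control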
# TRPML1 blocker: human mucolipin-1 channel inhibition. activity change, negative = inhibition, % (test concentration not listed). hit rate 0.02% among 390,000. Q9GZU1. TRPML1-inducible cells, Ca2+ dye fluorescence, FDSS; stronger effect = lower value; inhibition of EC80 agonist-evoked calcium signal; in the data active means activity change below about -50%; inconclusive means about -30% to -50%; inactive means above about -30%;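 also: stimulus is agonist 54-4 at its EC80 concentration; % is scaled to controls: 0 for no effect and ±100 for the full control effect; compound concentration not given in the record; the text of the record puts the active cut at -80%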
# Target sequence (Q9GZU1 whole entry, looked up): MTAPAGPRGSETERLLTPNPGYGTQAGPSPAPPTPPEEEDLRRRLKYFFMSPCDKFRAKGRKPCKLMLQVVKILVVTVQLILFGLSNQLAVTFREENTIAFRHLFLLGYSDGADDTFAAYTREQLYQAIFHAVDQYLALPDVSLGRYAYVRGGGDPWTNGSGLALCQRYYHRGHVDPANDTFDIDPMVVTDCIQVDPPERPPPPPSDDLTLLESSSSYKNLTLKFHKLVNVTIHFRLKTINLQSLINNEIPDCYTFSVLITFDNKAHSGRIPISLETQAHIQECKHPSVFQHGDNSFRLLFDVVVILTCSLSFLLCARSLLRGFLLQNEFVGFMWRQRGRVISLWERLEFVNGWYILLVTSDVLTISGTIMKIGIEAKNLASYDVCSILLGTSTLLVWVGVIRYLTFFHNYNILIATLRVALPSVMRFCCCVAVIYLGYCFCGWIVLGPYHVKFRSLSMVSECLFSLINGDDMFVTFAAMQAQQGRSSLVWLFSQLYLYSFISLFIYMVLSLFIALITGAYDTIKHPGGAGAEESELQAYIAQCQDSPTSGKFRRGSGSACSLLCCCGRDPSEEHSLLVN
#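 Calcium fluorescence in TRPML1-DL cells induced overnight with Tet: a 110 s read after compound pin addition, then a 110 s antagonist read after challenge with 54-4 at 4 uM final (EC80).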
# TRPML1 ag: activates the human TRPML1 channel; hit rate 0.12% among 410,000; Q9GZU1; TRPML1-expressing cells, Ca2+ dye fluorescence, FDSS; host cell line not named in the record; reference of the full effect not given here; activation, % (concentration not given with the values); in the data active = activation above about 50%; inconclusive = about 30% to 50%; inactive = below about 30%; also: 0% is about no effect; the text of the record puts the active cut at 80%
#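 In this qHTS format, compounds were pin-transferred onto Ca8-dye-loaded TRPML1-DL cells induced with Tet overnight, and intracellular Ca2+ fluorescence was recorded kinetically for 110 s after a 10 s baseline. A subsequent 4uM final 54-4 (EC80) addition followed by a second 110 s read served as the antagonist phase.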
# Sfp PPTase inh: inhibitors of Bacillus subtilis Sfp phosphopantetheinyl transferase | Q9F4F7 | Biochemical Sfp PPTase activity, qHTS | Potency, µM, for inactives: max response, negative = inhibition, usual class: inhibitors | hit rate 3.5% among 310,000 | AID 1490; active = well fitted inhibition curve with a large enough effect; inconclusive = small, poorly fitted or top-dose-only effect, or another doubt; inactive = no such curve, though single readings can be large or run the other way;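 also: the enzyme is Sfp with the accession as filed and its product quenches rhodamine fluorescence; potency is read from the fitted curve at half-maximal effect; 0% = enzyme reaction without inhibitor and -100% = no enzyme wells; top concentration of the series not given in the record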
#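 Compounds were incubated with enzyme (final 15 nM) for 15 min at room temperature before substrate addition started the reaction. Fluorescence at 525 nm excitation, 598 nm emission was recorded immediately and after 30 minutes.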
# PINK1 expr mod: modulators of PINK1 expression. PINK1 immunofluorescence, high-content cytometry, 24 h. hit rate 0.2% among 410,000. Potency, µM (top dose mostly 76.6 µM), for the others: at the top dose activation (PINK1 increase), hits mostly activators; active = well fitted activation curve with a large enough effect; inconclusive = small, poorly fitted or top-dose-only effect; inactive = flat fitted curve, though single readings scatter; cell line not stated here;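 also: potency is read from the fitted curve at half-maximal effect; % of control where 0% means no effect; nearly all actives have a fitted effect of over 65% in size; a mitochondrial uncoupler was the plate control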
#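 Cells are seeded, rested 12 hours, then given compound at five concentrations or DMSO for 24 hours. After fixation, blocking and antibody staining, PINK1 amount and mitochondrial localization are scored; CCCP serves as control.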
# TRPV1 potentiator: potentiators of human vanilloid receptor 1 (TRPV1) | AID 540277 | hit rate 0.02% among 320,000 | potentiation, % at 8.33 µM | Q8NER1 | TRPV1-expressing cells, Fluo-8 calcium influx, capsaicin EC20 potentiation; host cell line not named in the record; control for the full effect not named in the record; active means potentiation above 80%; inconclusive means 30% to 80%; inactive means below 30%; also: 0% is about no effect
#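 Fluo-8 calcium influx in TRPV1-expressing cells, kinetic read (ex 480/em 520 nm). Compound added and read 3 min for agonist activity, followed by capsaicin at EC20 final and 2 min further read for enhancement.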
# * hit, by the source's call; ? = inconclusive; . = not tested or not shown; & = joins results of further samples; [ ] = dose if it differs, or a comment.
# The line under a structure holds: ClpP mod	Menin MLL FP FL	TRPML1 blocker	TRPML1 ag	Sfp PPTase inh	PINK1 expr mod	TRPV1 potentiator
- O=C(COc1ccc(/C=N/NC(=O)c2ccncc2)cc1)Nc1ccc([N+](=O)[O-])cc1
→ .	0.9	-7	0.3	26%	2.1%	10
- O=C(NCc1ccc(Cl)cc1)C(=O)NCC(c1ccco1)S(=O)(=O)c1cccs1 (configuration not stated)
→ 0.8%	.	8	-0.5	.	1.7%	.
- CCN(CC(=O)NC(C)(C)C)C(=O)c1cccc(S(=O)(=O)N2CC3(C)CC2CC(C)(C)C3)c1 (configuration not stated)
→ -0.9%	.	9	-0.9	.	-0.3%	.
- CC1(C(=O)NC(=S)N(CCC#N)c2ccccc2)CC1(Cl)Cl (configuration not stated)
→ -1.5%	1.4	-8	-0.1	-2%	-1.1%	4
- CN(C)c1ccc(N/C=C/C(=O)c2ccc(F)cc2)cc1
→ 0.3%	13	-6	0.1	?	15%[38.3 µM]	-1
- Nc1ncnc2c1ncn2[C@@H]1O[C@H](CNC(=O)[C@H]2CCC(=O)N2)[C@@H](O)[C@H]1O
→ -2.6%	.	-8	0.3	.	0.2%	.
- CN(C)c1cccc(NC(=O)C2(C)CC2(Cl)Cl)c1 (configuration not stated)
→ -1.4%	2.3	0	-0.3	11%	3.7%	-1
- Clc1c(-c2ccccc2)nnn1-c1ccccc1
→ 1.4%	0.4	5	0.5	0%	2.5%	4
- COC(=O)CSc1nc(C)cc(C)c1C#N
→ .	1.6	5	0.0	-2%	2.8%	11
- Cc1cccc(N(C)C(=O)CCS(=O)(=O)c2ccc3c(c2)oc(=O)n3C)c1
→ -0.3%	.	-2	-0.7	.	1.9%	.
- Cc1c(C#N)c2ncnc(N)c2n1-c1ccccc1
→ 0.7%	1.2	42	1.2	4%	-2.0%	-4
- O=C(/C=N/O)Nc1cccnc1
→ 0.8%	1.0	53	-0.1	9%	1.1%	-9
- COc1ccc(OC)c2c(C)c(C)[nH]c12
→ -1.4%	?	15	2.8	10µM*	-0.9%	11
- CCOc1ccccc1NC(=O)C(CC(C)C)NS(=O)(=O)c1ccc2c(c1)oc(=O)n2C (configuration not stated)
→ -3.2%	.	2	1.1	.	0.5%	.
- CC(C)OP(=O)(c1ccc(N(C)C)cc1)C(O)c1ccccc1 (configuration not stated)
→ 0.0%	1.5	-6	-0.8	16%	-1.7%	-5
- O=C(O)c1ccccc1CSc1ncccc1C(=O)O
→ .	-0.3	1	-0.7	45µM*	2.0%	-6
- CC1CCN(CCC(=O)Nc2ccc3c(c2)OCCO3)CC1
→ .	0.1	.	.	-13%	.	7
- CCN(C(=O)CSc1nc2scc(-c3ccccc3)c2c(=O)n1N)C1CCS(=O)(=O)C1 (configuration not stated)
→ -2.8%	.	7	0.9	.	17%	.
- Cc1cccc(N2CCN(C(=O)c3oc(=O)c4ccccc4c3-c3ccccc3)CC2C)c1 (configuration not stated)
→ -5.1%	.	5	0.3	.	0.4%	.
- Cc1ccc(NC(=O)OCc2cncs2)cc1
→ .	0.9	13	1.0	4%	-0.1%	-30
- COc1cc(NC(=O)Nc2ccc(Cl)c(Cl)c2)c(C(=O)O)cc1OC
→ 3.7%	4.6	12	1.0	?	0.4%	?
- COc1ccc(C(C)C)cc1-c1cc(C(=O)NCc2cccc(C(F)(F)F)c2)[nH]n1
→ -7.6%	.	.	-0.2	.	3.8%	.
- CCOC(=O)CN1C(=O)N[C@@H](c2cccc(C(F)(F)F)c2)C(C(=O)OC)=C1C
→ -0.1%	17[11.7 µM]	-3	-0.4	14%	-0.1%	.
- O=C(Nc1cccc(-c2nc3ncccc3o2)c1)c1sc2cc(Cl)ccc2c1Cl
→ -3.0%	5.4	15	0.5	12%	10µM*	-5
- COc1ccccc1NC(=O)c1c(C)cc(C)nc1SCC(=O)c1ccc(Cl)cc1
→ 0.0%	.	14	1.6	.	0.5%	.
- CCCCCCCCCC[n+]1cccc2c3ccccc3ccc21
→ 3.5%	-1.5	14	0.6	?	?	-3
- COc1cc(/C=C2\C(=N)N3N=CSC3=NC2=O)ccc1OS(=O)(=O)c1ccccc1[N+](=O)[O-]
→ -1.0%	8.9	3	0.1	-4%	0.5%	2
- NCCSC1CC(=O)N(Cc2ccc(F)cc2)C1=O (configuration not stated)
→ .	0.1	3	-0.4	6%	-0.4%	9
- CCCNC(=O)[C@@H]1CCCN1C(=O)C1CCN(S(=O)(=O)c2ccc(C)cc2)CC1
→ -1.5%	-0.6	-3	0.1	8%	0.8%	-5
- O=C(CSc1nc2ccccc2c(=O)n1Cc1ccc(Cl)cc1)NCc1cccs1
→ 14%	2.9	0	-1.0	-2%	0.3%	-28
- O=C(c1noc2c1CCCCC2)N1CCOCC1
→ -2.3%	-0.1	-11	-0.1	14%	?	-1
- CNC(=S)Nc1cc2oc3ccccc3c2cc1OC
→ -6.2%	6.6	15	0.4	4%	1.5%	15
- CCOc1ccc(NC(=O)COC(=O)c2cc(C)oc2C)cc1
→ -12%	.	-1	2.7	.	16%	.
- COc1ccc(-c2cn(-c3ccc(OC)cc3)c3[n+]2-c2ccccc2CC3)cc1
→ -11%	2.7	-8	0.1	0%	?	-1
- O=C(c1cc(S(=O)(=O)N2CCN(c3ccccc3)CC2)ccc1Cl)N1CCCCCCC1
→ 0.0%	.	13	-0.3	.	-1.0%	-2
- CCSC1=NCCN1S(=O)(=O)c1ccccc1
→ 0.2%	-6.4	-8	0.1	2%	2.2%	-8
- CCOC(=O)C1=CCC(c2ccc(C#N)cc2)N(S(=O)(=O)c2ccc(C)cc2)C1 (configuration not stated)
→ -0.1%	.	81	0.8	.	9.2%	.
- COc1ccc(-c2oc3ncn4nc(-c5ccccc5Cl)nc4c3c2-c2ccc(OC)cc2)cc1
→ -13%	.	7	0.6	.	4.0%	.
- CCC1CCCCN1CCCNC(=O)CN1C(=O)CSc2ccc(S(=O)(=O)N3CCOCC3)cc21 (configuration not stated)
→ -2.4%&1.0%	-5.9	2&7	0.3&-0.4	8%	-1.4%&-0.9%	8
- N#Cc1ccccc1S(=O)(=O)N1CCN(c2nc(-c3cccs3)nc3ccccc23)CC1
→ 4.5%&-15%	.	.	0.2&-0.3	.	0.9%&1.3%	.
- CN1CCN(C(=O)Nc2ccc3c(c2)N(C)C(=O)c2ccccc2S3)CC1
→ 1.3%	4.6	8	0.0	-1%	1.7%	3
- CCOc1ccc(NS(=O)(=O)c2ccc(C(=O)N(C)CC(=O)Nc3cccc(OC)c3)cc2)cc1
→ 0.2%	.	34	0.5	.	3.5%	.
- COc1ccc(-n2nc(C(=O)NCC(=O)NCCN(C)C)c3ccccc3c2=O)c(OC)c1
→ -1.3%	0.1	7	-1.0	4%	-0.4%	2
- CCC(C)NCCOCCOc1ccc(F)cc1 (configuration not stated)
→ 0.0%	0.4	-6	-0.2	-9%	2.3%	-7
- Cc1ccc2c(C)c(C(=O)N(C)Cc3nccn3C)oc2c1C
→ -0.9%	1.1	-7	-0.3	11%	1.9%	-12

# Part of the list above, showing only TRPML1 ag, PINK1 expr mod and Menin MLL FP FL:
SMILES	TRPML1 ag	PINK1 expr mod	Menin MLL FP FL
CCOc1ccc(NC(=O)COC(=O)c2cc(C)oc2C)cc1	2.7	16%	.
COc1ccc(-c2cn(-c3ccc(OC)cc3)c3[n+]2-c2ccccc2CC3)cc1	0.1	?	2.7

# Other records follow:
# The line under a structure holds: ClpP mod	Menin MLL FP FL	TRPML1 blocker	TRPML1 ag	Sfp PPTase inh	PINK1 expr mod	TRPV1 potentiator
- CCCn1c(C)cc(C(=O)COC(=O)c2nccnc2N)c1C
→ -1.4%	0.1	-9	-1.2	-14%	-2.0%	-2
- O=C(NCSc1ccccc1)c1ccccc1
→ 0.9%	.	15	-0.1	.	0.3%	-29
- CCc1ccc(-c2nc(CS(=O)CC(=O)NCCc3ccccc3)c(C)o2)cc1 (configuration not stated)
→ -5.3%	.	28	-1.4	-15%	-0.9%	-5
- O=c1c2c(-c3ccco3)csc2nc(SCc2cn3cccnc3n2)n1-c1ccccc1
→ 3.5%	3.2	10	-0.4	18µM*	-0.6%	1
- Cc1cccc(Cn2cc(C(=O)Nc3ccc(S(N)(=O)=O)cc3)ccc2=O)c1
→ 1.7%	.	3	-0.1	.	-4.1%	.
- CSc1ccc2nnc(-c3ccc(C)cc3)n2n1
→ -17%	.	.	-0.9	.	-0.6%	.
- CC1CCCC(C)N1/N=C/c1ccc(O)cc1 (configuration not stated)
→ .	-6.7	-23	-0.1	12%	1.9%	3
- CSCCC(NC(=O)C1CCC(C)CC1)C(=O)OCC(=O)c1ccc(Cl)cc1 (configuration not stated)
→ -5.7%	7.1	13	-1.3	10%	11%	-15
- COc1ccc(Nc2nnc(-c3ccc(C)c(S(N)(=O)=O)c3)c3ccccc23)cc1
→ 1.4%	.	-1	-0.2	.	0.9%	.
- CCn1c(C(=O)O)c(CC(=O)Nc2ccccc2OC)c2ccccc21
→ -3.3%	8.0	-5	1.9	5%	-1.0%	25
- CC(C(=O)NCCN1CCOCC1)(c1ccccc1)c1ccccc1
→ .	-4.3	-3	-0.2	19%	-1.2%	4
- O=C(CC1C(=O)NCCN1Cc1ccoc1)NCCc1ccc(Cl)cc1 (configuration not stated)
→ .	9.5	-7	0.1	-16%	-1.7%	10
- CN1CCN(C(=S)c2ccc(Cl)cc2)CC1
→ 1.9%	0.2	-6	1.7	12%	-2.2%	-2
- OC1(c2ccc(F)cc2)CSC(=Nc2cccnc2)N1Cc1ccco1 (configuration not stated)
→ .	0.4	-7	0.2	-20%	-0.5%	15
- CSc1nsc(SC)c1C(=O)N1CCN(S(=O)(=O)c2ccc(C)cc2)C1C(C)C (configuration not stated)
→ -8.0%	-0.3	19	1.0	-5%	3.2%	-10
- COc1ccc(/C=C/C(=O)Nc2ccc(OC)nc2)cc1
→ .	3.7	1	-0.6	21%	0.9%	5
- C/C(=N\NC(=O)c1cccc(S(=O)(=O)Nc2ccccc2Cl)c1)c1ccc(-n2ccnc2)cc1
→ 0.5%	-1.2	1	2.4	-19%	1.8%	-5
- COc1ccc(CN2CCN(C(=O)c3ccccc3C(=O)c3ccccc3)CC2)cc1F
→ 1.9%	.	-11	-0.2	.	-0.7%	.
- COc1ccc(C(CCN2CCOCC2)c2c(O)cc(OC)cc2OC)cc1 (configuration not stated)
→ 2.2%	1.8&5.5	-5&-17	0.0&-0.1	4%&8%	-0.6%	-6

# Screening data deposited in PubChem by National Center for Advancing Translational Sciences (NCATS).
